VDR inh: Inhibitors of the vitamin D receptor (VDR): qHTS. VDR-SRC2-3 peptide fluorescence polarization, 2 h. Potency, µM, for the others: max response, negative = inhibition, most hits filed as inhibitors. 400,000 tested, 0.93% active. AID 504847, 2011; active = well fitted inhibition curve with a large enough effect; inconclusive = small, poorly fitted or top-dose-only effect, or another doubt; inactive = no such curve, though single readings can be large or run the other way; note: series mostly up to about 120 µM
Target sequence (P11473 whole entry, looked up): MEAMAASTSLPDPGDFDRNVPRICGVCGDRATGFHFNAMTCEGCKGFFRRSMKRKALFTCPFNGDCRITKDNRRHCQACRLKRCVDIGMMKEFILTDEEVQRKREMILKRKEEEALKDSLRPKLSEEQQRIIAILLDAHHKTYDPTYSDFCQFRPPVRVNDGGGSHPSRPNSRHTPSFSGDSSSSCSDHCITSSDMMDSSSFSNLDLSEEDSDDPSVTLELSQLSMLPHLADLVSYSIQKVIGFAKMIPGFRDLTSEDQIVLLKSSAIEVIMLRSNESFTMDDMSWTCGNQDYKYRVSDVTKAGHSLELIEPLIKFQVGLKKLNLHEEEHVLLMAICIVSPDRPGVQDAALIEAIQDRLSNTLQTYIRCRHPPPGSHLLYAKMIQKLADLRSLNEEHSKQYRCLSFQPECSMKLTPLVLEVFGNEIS
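Compounds are added to VDR with labelled SRC2-3 coactivator peptide and held 2 h at room temperature. Inhibition of the VDR–peptide interaction is then read as a change in fluorescence polarization.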
* marks the source's active call; other numbers are inactive results; ? = inconclusive; & = joins results of further samples; [ ] = dose if it differs, or a comment. % is set by controls: 0 for no effect and ±100 for the full control effect; potency is the fitted concentration of half-maximal effect. Only part of the results is shown; rates above refer to the full screens.

| SMILES | VDR inh |
| --- | --- |
| CNC(=O)O/N=C(\C)Cc1nnn(-c2cc(C)on2)n1 | -3% |
| C1=CC(Cc2cncs2)c2ccccc21 (configuration not stated) | -15% |
| COP(=S)(OC)Oc1ccc(S(=O)(=O)N(C)C)cc1 | ? |
| O=C(c1cc2cc3ccc(Cl)cc3nc2o1)N1CCC2(CC1)OCCO2 | 20% |
| CC1=CC2OC3CC4OC(=O)C=CC=CC(=O)OCCC(C)C(O)C(=O)OCC2(CC1O)C4(C)C31CO1 (configuration not stated) | -21% |
| CCC1/C=C/C=CCC(C)C(O)[C@@](C)(O)C(=O)C(C)C(O)C(C)C(=O)C(C)C(O)C(C)C=CC(=O)O[C@H]2C(C)C(CC1)O[C@]1(CCC(C)C(CC(C)O)O1)C2C (some centres not stated) | -14% |
| CC(=O)OC1CC[C@]2(C#N)[C@H]3CC[C@]4(C)[C@H](C5C=CC(=O)O5)CCC4(O)C3CCC2(O)C1 (some centres not stated) | -17% |
| CCOC(=O)CN1C(=O)CC(C[C@@H](O)C2C[C@@H](C)C[C@H](C)C2=O)CC1=O (some centres not stated) | 3%&-10% |
| CCN1C[C@]2(COC)CC[C@H](OC)[C@@]34C1[C@]1(OCO[C@@]15C[C@H](OC)[C@H]1C[C@@H]3[C@@H]5[C@H]1OC)[C@@H](O)[C@H]24 | -5% |
| N#CC(C#N)=Cc1ccc(N2CCOCC2)cc1 | -6% |
| CCc1ccc2nc(N3CCC(C(=O)N4CCC5(CC4)OCCO5)CC3)sc2c1 | 10% |
| O=C(NCc1cccnc1)Nc1ccccc1Cl | 23% |
| CC1=[N+]([O-])C2(N)CCc3nonc3C2(O)C1 (configuration not stated) | -1% |
| CCOP(=O)(OCC)C(NC(=O)c1ccc(C)cc1)C(Cl)(Cl)Cl (configuration not stated) | -24% |
| Cc1cc(=O)n(-c2ccccc2)n1-c1ccccc1 | 14% |
| c1ccc2c(c1)sc1ccccc12 | 3% |
| C(=C/c1ccccc1)/CN1CCN(CCOC(c2ccccc2)c2ccccc2)CC1 | -7% |
| CN1CC(C(=O)c2ccc(Cl)cc2)C(c2ccccc2F)C1 (configuration not stated) | -14% |
| COc1ccc2c(c1)[C@@]13CCCC[C@H]1[C@@H](C2)NCC3 | -5% |
| CCOC(=O)C1CCCCC12C(C#N)=C(N)Oc1n[nH]c(C)c12 (configuration not stated) | 10% |

Brought forward from above: three compounds; new compounds follow.
| SMILES | VDR inh |
| --- | --- |
| CN1CC(C(=O)c2ccc(Cl)cc2)C(c2ccccc2F)C1 (configuration not stated) | -14% |
| COc1ccc2c(c1)[C@@]13CCCC[C@H]1[C@@H](C2)NCC3 | -5% |
| CCOC(=O)C1CCCCC12C(C#N)=C(N)Oc1n[nH]c(C)c12 (configuration not stated) | 10% |
| C1=C(c2ccccc2)CCNC1 | -8% |
| CN1CCc2nc3sc(C(=O)NC(C)(C)C)c(N)c3cc2C1 | 17% |
| Cc1ccc2nc(N3CCC(C(=O)N4CCC5(CC4)OCCO5)CC3)sc2c1 | -8% |
| CCn1c(O)c(C=NCCc2c[nH]c3ccccc23)c(=O)[nH]c1=O | 9% |
| CCc1ccc(N2C(=O)NC(=O)/C(=C/c3cccn3CCOc3ccc(C(C)CC)cc3)C2=O)cc1 (configuration not stated) | -8% |
| C=CC1CN2CCC1CC2[C@@H](OC(=O)c1ccc(OC)cc1)c1ccnc2ccccc12 (some centres not stated) | -27% |
| COC(=O)C1=C(c2ccc(F)cc2OCc2ccccc2)C[C@@H]2CC[C@H]1N2C(=O)NCc1ccc(OC)cc1 | -4% |
| COc1ccc(N2C(=O)/C(=C/c3cccs3)C(=O)NC2=S)cc1 | -2% |
| CC(Cc1cccs1)NCc1ccc(Cl)cc1 (configuration not stated) | 1% |
| COc1ccccc1NC(=O)c1cn(CCC#N)nc1-c1cccc(Cl)c1 | -9% |
| COCC(=O)N(c1c(C)cccc1C)C(C)C(=O)OC (configuration not stated) | 9% |
| CC1CC(OP(O)(=S)c2ccc(N(C)C)cc2NC(=O)c2cccs2)CC(C)(C)C1 (configuration not stated) | 45µM* |
| COc1ccc(CNCCc2ccc(Cl)cc2)c(OC)c1OC | -8% |
| CNC(=S)N1CCn2cccc2C1c1cccnc1 (configuration not stated) | -1% |
| CCN(CC)C(=O)c1ccc(NC(=O)Cn2nc(C)c3ccccc3c2=O)cc1 | -23% |
| O=C(NC1CONC1=O)OCC(Cl)(Cl)Cl (configuration not stated) | -18% |
| C#CC1(O)C=CC2C3CCC4=CC(=O)CCC4C3CCC21CC (configuration not stated) | 6%&-5% |
| CCN(CC)c1ccc(/C=C2\C(=O)NC(=O)N(Cc3ccco3)C2=O)cc1 | ? |
| O=C(CCC(=O)N1CCOc2ccc(Cl)cc21)N1CCC2(CC1)OCCO2 | -9% |
| CC12CN3CC(C)(CN(C1)C3c1ccncc1)C2=O (configuration not stated) | -11% |
| CCCCCCOc1ccc(CN2CCN(CCO)CC2)cc1 | 9% |
| c1ccc(-c2[nH]c(-c3ccccc3)[n+](CC3CO3)c2-c2ccccc2)cc1 (configuration not stated) | -14% |
| COc1ccc(C(=O)c2c(C)n(CCN3CCOCC3)c3cc(I)ccc23)cc1 | -16% |
| COc1ccc(C2N(c3cc(C)on3)C(=O)C3CCCN32)cc1 (configuration not stated) | 1% |
| C=CCn1c(O)c(C(CC)=Nc2ccc3c(c2)CCC3)c(=O)[nH]c1=O | 10% |
| N#CC(C#N)=Cc1cccnc1 | ? |
| CCC(C)OC(=O)c1c(N)n(Cc2cccs2)c2nc3ccccc3nc12 (configuration not stated) | -4% |
| CC(C)n1c(=O)c(C=Nc2ccc(Br)cc2)c(O)n(Cc2ccco2)c1=O | -2% |
| CC[C@]1(O)CC[C@H]2[C@@H]3CCC4=CCCC[C@@H]4[C@H]3CC[C@@]21C | -20% |
| Cc1cc(/C=C2/C(=O)NC(=O)N(Cc3ccco3)C2=O)c(C)n1-c1ccccc1 | -5% |
| O=C1NC(=O)[C@]2(Cc3ccccc3N3CCN(c4ccccc4)CC32)C(=O)N1Cc1ccccc1 (some centres not stated) | ? |
| CC(=O)OC1C2CCC3C1(CC(O)[C@@]1(O)[C@@H](CC(O)C1(C)C)[C@]3(C)O)C[C@@]2(C)O (some centres not stated) | 0% |
| C[C@]12CCC3C(CC[C@H]4[C@@H](O)[C@H](O)CC[C@]34C)C1CCC2=O (some centres not stated) | 15% |
| CCOC(=O)N1CCN(/[N+]([O-])=N/Oc2ccc([N+](=O)[O-])cc2[N+](=O)[O-])CC1C (configuration not stated) | 56µM* |
| COC(=O)C1=C(c2ccc(C(C)=O)cc2)C[C@@H]2CC[C@H]1N2C(=O)N1CCC(C)CC1 | 6% |
| COC(=O)C1=C(c2ccc(OC)c(OC)c2)C[C@@H]2CC[C@H]1N2C(=O)NCCOc1ccccc1Cl | -22% |
| CC1(C)N([O-])[N+](=O)C1(C)Br (configuration not stated) | ? |
| OC1CCCCC1N1CCC(c2ccccc2)CC1 (configuration not stated) | -6%&-8%&-1% |
| c1ccc2c(CN3CCCCCCC3)c[nH]c2c1 | 5% |
| CC(C)(C)n1cccc1/C=C1\C(=O)NC(=O)N(c2ccccc2)C1=O | 18% |
| ClC1=C(Cl)C(Cl)(C2(Cl)C(Cl)=C(Cl)C(Cl)=C2Cl)C(Cl)=C1Cl | 3.2µM* |
| COc1ccc(-n2c(O)c(C=NCCN(C)C)c(=O)[nH]c2=O)cc1 | 5% |
| Cn1c(O)c(C=Nc2ccc(Cl)cc2)c(=O)n(C)c1=O | 8% |
| CCOC(=O)c1[nH]c2ccc(OC)cc2c1C(SCC(=O)O)c1ccc(C(F)(F)F)cc1 (configuration not stated) | ? |
| O=C(O)C1CSC(c2cccnc2)N1 (configuration not stated) | -5% |
| c1ccc2c(CN3CCN(C4CCCCC4)CC3)c[nH]c2c1 | 4% |
| O=C(c1cccc(C(F)(F)F)c1)C1CCCN(Cc2ncc[nH]2)C1 (configuration not stated) | 8% |
| O=C(CSC1c2ccccc2-c2ccccc21)N/N=C/c1ccccc1C(=O)O | 0% |
| COc1ccc2nc(/N=C/c3c(O)n(-c4cccc(Cl)c4)c(=O)[nH]c3=O)sc2c1 | 50µM* |
| O=C1NC(=O)C(=Cc2ccco2)C(=O)N1 | 4% |
| COC12CCC3(CC1C(C)(O)C(C)(C)C)[C@H]1Cc4ccc(O)c5c4[C@@]3(CCN1CC1CC1)C2O5 (some centres not stated) | -16% |
| Cc1ccc(N2C(=O)CC(=O)NC2=O)cc1 | -8% |
| CC(=O)OCC12CC(OC(=O)CC(C)C)C(C)=CC1OC1C(O)C(OC(C)=O)C2(C)C12CO2 (configuration not stated) | -1% |
| Cc1cc(/C=C2\C(=O)NC(=O)N(c3ccc(F)cc3)C2=O)c(C)n1-c1ccc(C(=O)O)cc1 | -5% |
| NC(=O)CN1CCCC1=O | 7%&-11%&-12% |
| Cc1cc(NC(=O)COC(=O)c2c(C)nn(Cc3ccccc3)c2Cl)no1 | -4% |
| CCOP(=O)(OCC)C(NC(=O)c1ccccc1C)C(Cl)(Cl)Cl (configuration not stated) | -13% |
| CCOP(=O)(C#Cc1ccccc1)C(O)c1ccc(Br)cc1 (configuration not stated) | -10% |
| NC(=O)c1cc([N+](=O)[O-])cc([N+](=O)[O-])c1 | -4%&1% |
| Cc1nccc2c1[nH]c1ccccc12 | 0%&12%&7% |

Laid out differently: results already given
structure: Cc1cc(/C=C2\C(=O)NC(=O)N(c3ccc(F)cc3)C2=O)c(C)n1-c1ccc(C(=O)O)cc1
  VDR inh = -5%
structure: CCOP(=O)(OCC)C(NC(=O)c1ccccc1C)C(Cl)(Cl)Cl (configuration not stated)
  VDR inh = -13%

The list continues.
| SMILES | VDR inh |
| --- | --- |
| O=C1CN=C(c2ccccc2)c2ccccc2N1Cc1ccc(C(F)(F)F)cc1 | 2% |
| Nc1c(C(=O)Nc2ccc(Br)cc2F)sc2nc3c(cc12)N1CCC3CC1 | 7% |
| COC(=O)C1=C(c2ccc(Cl)c(C(F)(F)F)c2)C[C@@H]2CC[C@H]1N2C(=O)NCCOc1ccccc1Cl | -10% |
| O=c1[nH]c(=O)n(Cc2ccccc2)c(O)c1C=NCCN1CCNCC1 | -4% |
| Cc1ccccc1Cc1c(C)nc2nc(SCC(=O)N3CCC4(CC3)OCCO4)nn2c1C | -1% |
| CN1C(=O)CC(c2ccccc2)Nc2ccccc21 (configuration not stated) | 2% |
| CN(CCc1ccccc1)Cc1c[nH]c2ccccc12 | -12% |
| C/C=C(/C)C(=O)O[C@H]1C(C)=C2[C@H]([C@@H]1OC(=O)CCCCCCC)[C@@](C)(OC(C)=O)C[C@H](OC(=O)CCC)[C@@]1(O)[C@H]2OC(=O)[C@@]1(C)O | 10%&18%&1% |
| C=C[C@H]1CN2CC[C@H]1C[C@H]2[C@H](O)c1ccnc2ccccc12 | -9% |
| O=C(Nc1cccc(C(=O)Nc2cc(C(=O)Nc3ccc([S+](=O)([O-])[O-])c4cc([S+](=O)([O-])[O-])cc(SOOO)c34)ccc2F)c1)Nc1cccc(C(=O)Nc2cc(C(=O)Nc3ccc([S+](=O)([O-])[O-])c4cc([S+](=O)([O-])[O-])cc([S+](=O)([O-])[O-])c34)ccc2F)c1 | 40µM* |
| Cc1ccccc1-n1c(/C=C/c2ccc(O)cc2)nc2ccccc2c1=O | -7% |
| C#C[C@]1(O)CCC2C3C(CC[C@@]21C)[C@@]1(C)CC[C@@H](O)CC1=C[C@H]3O (some centres not stated) | -11% |
| CCCCCOc1c(OC)ccc2cc(C(=O)NCc3ccc4c(c3)OCO4)c(=O)[nH]c12 | 1% |
| CC1(CCO)C(=O)NC(=S)NC1=O | -26% |
| O=c1c2ccccc2nc(/C=C/c2ccc(O)cc2)n1-c1cccc(O)c1 | 12% |
| O=C(O)C(O)(c1ccccc1)C1CCCC1 (configuration not stated) | 39%[activator] |
| CC(Cc1ccccc1)[n+]1cc(/N=C(\N)[O-])on1 (configuration not stated) | -23% |
| CN(C)CCSC1c2ccccc2CSc2ccccc21 (configuration not stated) | -29% |
| COc1cc(C=C2C(=O)NC(=O)NC2=O)ccc1O | -19% |
| Cc1cccn2c(=O)c3c(nc12)N1CCCCC1C1(C3)C(=O)N(C)C(=O)N(C)C1=O (configuration not stated) | -11% |

Brought forward from above: 6 compounds, followed by the next part.
| SMILES | VDR inh |
| --- | --- |
| O=c1c2ccccc2nc(/C=C/c2ccc(O)cc2)n1-c1cccc(O)c1 | 12% |
| O=C(O)C(O)(c1ccccc1)C1CCCC1 (configuration not stated) | 39%[activator] |
| CC(Cc1ccccc1)[n+]1cc(/N=C(\N)[O-])on1 (configuration not stated) | -23% |
| CN(C)CCSC1c2ccccc2CSc2ccccc21 (configuration not stated) | -29% |
| COc1cc(C=C2C(=O)NC(=O)NC2=O)ccc1O | -19% |
| Cc1cccn2c(=O)c3c(nc12)N1CCCCC1C1(C3)C(=O)N(C)C(=O)N(C)C1=O (configuration not stated) | -11% |
| COC(=O)C1=C(c2ccc(OC(F)(F)F)cc2)C[C@@H]2CC[C@H]1N2C(=O)N1CCCC1 | -3% |
| COC(=O)C1=C(c2ccccc2)C[C@@H]2CC[C@H]1N2C(=O)N1CCC(C)CC1 | -10% |
| CC1=C2C(=O)C3C(CC=C4CC(OC5OC(O)C(O)C(O)C5CO)CCC43C)C2CCC12OC1CC(C)CNC1C2C (configuration not stated) | -10% |
| COc1ccccc1OCC#CCN1CCCCCC1 | -15% |
| O=C(O)c1cn(Cc2ccccc2)nc1-c1ccccc1 | -4% |
| O=S(=O)(c1ccc(F)cc1)N1CCCCC1c1cccnc1 (configuration not stated) | -5% |
| O=C(O)CC[N+](=O)[O-] | 1%&0% |
| CC(C)(C)NC[C@H](O)COc1cccc2[nH]c(C#N)cc12 | 3% |
| COc1ccc(S(=O)(=O)N2CC3CC(C2)c2cccc(=O)n2C3)cc1 (configuration not stated) | 2% |
| c1ccc(CNC2CN3CCC2CC3)cc1 (configuration not stated) | 9% |
| O=C(CCN1CC2CCC(CC2)C1)c1cccs1 | 45µM* |
